# Screens (PubChem)
# E coli growth: E. coli growth inhibition, primary screen, OD600. OD600 absorbance (test concentration not listed). Escherichia coli growth, 23 h; hits give low values. 330,000 tested, 0.21% active;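 active = OD600 absorbance below the run mean of sample wells minus 3.6 SD, in any replicate, cut at about 0.56 in these data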;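 also: stock transfer was 300 nL into about 60 µL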
# UCH37 DUB inh: inhibitors of human UCH37 deubiquitinase, primary screen, biochemical, Ub-AMC cleavage, fluorescence; Ubiquitin carboxyl-terminal hydrolase isozyme L5 (Homo sapiens), Q9Y5K5; purified proteasome/UCH37; inhibition, % (no concentration beside the values); 330,000 tested, 0.33% active; AID 588478, 2011;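 active = mean of two replicates above 20%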;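 also: 0% = compound-free wells with enzyme and 100% = wells lacking proteasome; stock transfer was 100 nL into about 20 µL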
# Target sequence (Q9Y5K5 whole entry, looked up): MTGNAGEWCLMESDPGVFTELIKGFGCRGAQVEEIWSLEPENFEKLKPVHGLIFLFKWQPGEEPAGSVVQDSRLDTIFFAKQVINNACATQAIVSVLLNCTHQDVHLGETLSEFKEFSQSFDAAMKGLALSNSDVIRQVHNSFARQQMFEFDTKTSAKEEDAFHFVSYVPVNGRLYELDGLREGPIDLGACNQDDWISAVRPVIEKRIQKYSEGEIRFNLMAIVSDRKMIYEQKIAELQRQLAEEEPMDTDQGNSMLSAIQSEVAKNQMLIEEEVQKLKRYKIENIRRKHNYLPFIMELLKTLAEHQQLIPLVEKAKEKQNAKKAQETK
#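 Test system – human UCH37 enzyme supplied as purified proteasome complex · Incubation – 30 min preincubation with enzyme, 25 min cleavage at room temperature · Detection – AMC fluorescence from Ub-AMC cleavage, excitation 355 nm, emission 460 nm · Benchmarks – no-proteasome wells (full inhibition) and compound-free wells (no inhibition)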
# The depositor's hits bear a star; & = joins results of further samples.
SMILES,E coli growth,UCH37 DUB inh
Cc1ccc(N2CCN(N=Cc3cccnc3)CC2)cc1,0.68,5.1
CC(=NN=C(N)SC1CC(=O)N(c2ccc(Cl)c(Cl)c2)C1=O)c1cccs1 (stereo not given),0.737,10.1
O=C(CC(=O)NN=Cc1c(Cl)cccc1Cl)NCc1ccccc1,0.659,3.4
COc1cc(C=NN2CCN(Cc3ccc(Cl)cc3)CC2)cc(Br)c1O,0.67,1.5
CSC(=NS(=O)(=O)c1ccc(C)cc1)c1ccccc1,0.661,1.5
COc1ccc(C=NNC(=S)Nc2cccc(C(=O)O)c2)cc1OC,0.701,14.7
Nc1c(Cl)ncnc1NN=Cc1ccccn1,0.444*,17.0
CN(C)c1ccc(C=NNc2ccccn2)cc1,0.614,-15.5
CC1CCN(c2ccc(C=Nn3nnnc3N)cc2[N+](=O)[O-])CC1,0.675,7.2
O=C(O)c1ccc(NN=C/C(Br)=C/c2ccccc2)cc1,0.638,16.8
Cn1cc([N+](=O)[O-])c(C(=O)NN=Cc2cc3c(cc2Br)OCO3)n1,0.708,10.7
CCOc1cc(C(=O)NN=Cc2ccoc2)cc(OCC)c1OCC,0.743,3.1
Fc1ccc(C=NNc2nnnn2-c2ccccc2)cc1,0.729,5.8
CC(=O)c1sc(NN=Cc2c(O)ccc3ccccc23)nc1C,0.646,4.2
O=C(O)c1ccc(C=NNC(=O)c2cc(-c3cccs3)nc3ccccc23)cc1,0.652,-177.4
CN(Cc1c(C(=O)NN=Cc2ccc(O)cc2)nnn1-c1nonc1N)c1ccccc1,0.68,5.7
CCOC(=O)c1c(N=Cc2ccc(C)cc2O)sc2c1CCN(C)C2,0.651,4.7
CC1(C)CC2CC(C)(CN2C=Nc2sc3c(c2C#N)CC(C)(C)NC3(C)C)C1 (stereo not given),0.649,10.5
Cc1cc(C(=O)NN=C/C=C/c2ccc3c(c2)OCO3)n[nH]1,0.686,-30.8
Cc1nn(-c2ccccc2)c(Cl)c1C=NNC(=O)c1nn(C)cc1[N+](=O)[O-],0.714,3.8

# Given tab-delimited: part of the list above
Molecule	E coli growth	UCH37 DUB inh
Cc1ccc(N2CCN(N=Cc3cccnc3)CC2)cc1	0.68	5.1
CC(=NN=C(N)SC1CC(=O)N(c2ccc(Cl)c(Cl)c2)C1=O)c1cccs1 (stereo not given)	0.737	10.1
O=C(CC(=O)NN=Cc1c(Cl)cccc1Cl)NCc1ccccc1	0.659	3.4
COc1cc(C=NN2CCN(Cc3ccc(Cl)cc3)CC2)cc(Br)c1O	0.67	1.5
CSC(=NS(=O)(=O)c1ccc(C)cc1)c1ccccc1	0.661	1.5
COc1ccc(C=NNC(=S)Nc2cccc(C(=O)O)c2)cc1OC	0.701	14.7
Nc1c(Cl)ncnc1NN=Cc1ccccn1	0.444*	17.0
CN(C)c1ccc(C=NNc2ccccn2)cc1	0.614	-15.5
CC1CCN(c2ccc(C=Nn3nnnc3N)cc2[N+](=O)[O-])CC1	0.675	7.2
O=C(O)c1ccc(NN=C/C(Br)=C/c2ccccc2)cc1	0.638	16.8
Cn1cc([N+](=O)[O-])c(C(=O)NN=Cc2cc3c(cc2Br)OCO3)n1	0.708	10.7
CCOc1cc(C(=O)NN=Cc2ccoc2)cc(OCC)c1OCC	0.743	3.1
Fc1ccc(C=NNc2nnnn2-c2ccccc2)cc1	0.729	5.8
CC(=O)c1sc(NN=Cc2c(O)ccc3ccccc23)nc1C	0.646	4.2

# (more compounds)
SMILES,E coli growth,UCH37 DUB inh
Cc1cc(C=NNC(=O)C(O)(c2ccccc2)c2ccccc2)c(C)n1-c1cccc(C(=O)O)c1,0.658,4.8
O=C1C2C(C(=O)N1N=Cc1ccco1)C1C=CC2C12CC2 (stereo not given),0.697,5.3
Cc1cc(C)c2c(N)c(C(=O)NN=Cc3cccnc3)sc2n1,0.653,2.0
Cc1ccc(C=NNc2ncc(Cl)cc2Cl)s1,0.658,0.3
C=CCN1C(=O)/C(=C/c2ccc(OCC(=O)O)cc2)SC1=Nc1nccs1,0.745,14.9
Clc1ccccc1COc1ccc(C=Nn2cnnc2)cc1,0.693,1.8
COC(=O)c1ccc(NC(=NS(=O)(=O)c2ccccc2)c2ccccc2)cc1,0.695,3.7
CN=C1CC(C)(C)CC(=O)/C1=C(\O)CCCN1C(=O)c2ccccc2C1=O,0.654,1.4
Cc1cc(C)n(CCC(=O)NN=Cc2c(O)ccc3ccccc23)n1,0.643,0.0
Cc1ccc(NN=C/C=C/c2ccco2)cc1,0.663,0.6
COc1cccc(C=Nn2c(CO)nc3ccccc32)c1OC,0.725,1.3
CCc1cc(C(=O)NN=Cc2ccc(OC)cc2)c2ccccc2n1,0.699,3.2
O=C(CN1CCCCCCC1)NN=Cc1ccc(F)c(F)c1,0.699,2.6
CC(=NNC(=O)CSCc1cccc(Br)c1)c1ccc([N+](=O)[O-])cc1,0.69,3.7
CC(=NNS(=O)(=O)c1ccc([N+](=O)[O-])cc1)c1ccc2c(c1)OCO2,0.729,2.5
CC(=NNC(=O)c1sc(NS(=O)(=O)c2ccccc2)nc1C)c1ccc(F)cc1,0.717,-5.2
Cc1cc(C)c(COc2ccc(C=Nn3c(C)n[nH]c3=S)cc2)c(C)c1,0.667,2.6
COc1ccc(C=NNC(=O)C(N)=O)c(OC)c1OC,0.659,6.8
O=c1c(=Cc2cccc(O)c2)sc2nc(-c3ccccc3)c(-c3ccccc3)n12,0.68,5.3
Cc1ccc(S(=O)(=O)NN=Cc2cc(Br)ccc2O)cc1,0.695,4.7
O=C(CNC(=O)c1ccc(F)cc1)NN=Cc1cn[nH]c1-c1ccccc1,0.716,4.8
O=C(O)c1ccc(-c2ccc(C=NNc3ccc([N+](=O)[O-])cc3)o2)cc1,0.725,-15.9
CC(=NNC(=O)CNS(=O)(=O)c1ccccc1)c1ccc(Br)cc1,0.693,2.5
CC1=CC(=C(c2ccc(O)c(C)c2)c2ccccc2S(=O)(=O)O)C=CC1=O,0.71&0.695,15.0&6.8
O=C(NN=Cc1ccncc1)c1cc2ccccc2o1,0.664,5.5
CC(/C=C/c1ccco1)=NNC(=O)c1ccc(C)nc1,0.679,14.3
Cc1cc(=O)[nH]c(NN=Cc2c[nH]c3ccccc23)n1,0.667,3.7
CC(CC(=O)Nc1ccc(C)c(Cl)c1)=NNC(=O)c1cccc(O)c1,0.667,1.1
Cc1ccc(-n2c(C)cc(C=NNC(=O)c3ccc(CN4CCOCC4)cc3)c2C)cc1,0.7,2.7
Cc1nnc(NN=Cc2cccs2)[nH]c1=O,0.634,7.2
O=S1(=O)N=C(N(CCO)N=Cc2ccc(Cl)cc2)c2ccccc21,0.664,-43.5
COc1ccc(C=NNC(=S)Nc2ccccc2)cc1COc1ccc(F)cc1F,0.673,2.4
CCOc1ccccc1C=NNC(=O)c1cc(C(C)C)[nH]n1,0.671,-1.1
CCC(C)NC(=O)c1c(N)n(N=Cc2cccnc2)c2nc3ccccc3nc12 (stereo not given),0.715,-102.3
Cc1ncc([N+](=O)[O-])n1CC(=O)NN=Cc1ccccc1F,0.629,4.1
Cc1ccc(C=NNC(=O)C2COc3ccccc3O2)s1 (stereo not given),0.692,2.6
CC(=NNC(=O)c1ccncc1)C12CC3CC(CC(C3)C1)C2,0.661,-1.4
COc1cc(C=NN=C2SC(CC(=O)O)C(=O)N2c2ccc(O)cc2)ccc1O (stereo not given),0.65,2.7
ON=Cc1ccc(OCc2ccccc2)c(Cl)c1,0.665,6.2
Cc1[nH]c2ccccc2c1C=NNc1nc(N2CCCCC2)nc(N2CCCCC2)n1,0.685,4.6
Cn1c(=O)c2c(nc(NN=Cc3cccs3)n2Cc2ccc(Br)cc2)n(C)c1=O,0.687,-10.0
COc1ccc(NC(C)C(=O)NN=Cc2ccc([N+](=O)[O-])s2)cc1 (stereo not given),0.668,9.6
Cc1cccc(NC(=O)CC2SC(=Nc3nccs3)N(C)C2=O)c1 (stereo not given),0.686,1.6
CC(=NNc1nc(C)cc(-c2ccccc2)n1)c1ccc(O)cc1,0.712,4.2
ON=C(c1ccc(F)cc1)C1CC1c1c(F)cccc1Cl (stereo not given),0.621,2.8
CC(=NNc1ccc(S(=O)(=O)Nc2ccccc2)cc1[N+](=O)[O-])c1ccncc1,0.676,5.8
O=C(ON=C(c1ccccc1)c1ccncc1)c1ccccc1Cl,0.659,4.6
COc1cc(C=NNC(=O)c2ccncc2)cc2c1OCO2,0.661,9.4
CCOP(=O)(OCC)C(=NOC(=O)c1ccc(Cl)cc1Cl)C(N)=O,0.642,6.0
CC(CC(=O)Nc1ccc(C)c(Cl)c1)=NNC(=O)c1ccncc1,0.619,-2.9
CCN(CC)CCNC(=O)C(=NO)c1ccccn1,0.704,3.8
O=C(CSCc1ccccc1)NN=Cc1ccc(OCC(=O)N2CCCCC2)cc1,0.701,5.2
O=C(CCC(=O)Nc1ccc(Cl)cc1Cl)NN=Cc1ccc([N+](=O)[O-])o1,0.413*,12.1
Nc1nnnn1N=Cc1ccc(Cl)c([N+](=O)[O-])c1,0.666,0.0
COc1ccc(C(=O)NCC(=O)NN=C/C(C)=C/c2ccco2)cc1OC,0.698,10.2
COc1ccc(Br)cc1C=NNC(=O)C(c1ccncc1)N1CCOCC1 (stereo not given),0.668,3.2
C(/C=C/c1ccccc1)=NN1CCN(c2ccccc2)CC1,0.669,2.8
CC(=NS(=O)(=O)c1ccc(C)cc1)N1CCCCC1,0.691,2.2
Cc1ccc(S(=O)(=O)NN=Cc2cc([N+](=O)[O-])ccc2O)cc1[N+](=O)[O-],0.629,2.7
CC(=NNC(=O)c1ccncc1)c1c[nH]c2ccccc12,0.714,8.8

# The listing continues:
SMILES,E coli growth,UCH37 DUB inh
S=c1[nH]nc(-c2ccco2)n1N=Cc1cccc(Cl)c1Cl,0.701,3.5
CC(C)CC(=O)NN=Cc1c(N)n(C)c(=O)n(C)c1=O,0.595,3.4
CCCN(CCC)Cc1c(C(=O)NN=Cc2ccncc2)nnn1-c1nonc1N,0.682,4.4
CNC(=S)NN=Cc1ccc(-c2cccc(C(=O)O)c2)o1,0.679,0.4
COc1ccccc1C(=O)NN=Cc1ccc(Cl)s1,0.643,11.3
Cc1ccc([N+](=O)[O-])cc1-c1ccc(C=NNC(=O)c2cc3c(ccc4ccccc43)o2)o1,0.69,5.8
CCOc1cccc(-c2c(C(=O)NN=Cc3ccc(Br)cc3)nnn2-c2nonc2N)c1,0.721,7.5
O=C(CNS(=O)(=O)c1ccc([N+](=O)[O-])cc1)NN=Cc1ccc(O)cc1,0.633,1.8
COc1ccc(N(CC(=O)NN=C(C)c2ccccc2)S(=O)(=O)c2ccccc2)cc1,0.658,3.1
O=C(NN=Cc1cccc(OCC(=O)N2CCCC2)c1)C(=O)Nc1ccccc1F,0.693,2.5
Cc1cccc(N=Cc2sc3ccccc3c2O)n1,0.721,9.0
CCON=C(c1nonc1N)N1CCN(c2ccc([N+](=O)[O-])cc2)CC1,0.698,7.8
CC(=NNS(=O)(=O)c1ccc(Cl)cc1)c1cccc(O)c1,0.77,1.7
C=CCOc1ccccc1C=Nn1nnnc1N,0.627,-2.4
Cc1nn(Cc2ccccc2)c(C)c1C=NNC(=O)c1ccncc1,0.624,55.5
Cc1ccc2cc(C=NNC(=O)c3ccccc3[N+](=O)[O-])c(Cl)nc2c1,0.66,3.9
O=C(NN=Cc1cn(Cc2ccccc2)c2ccccc12)c1cc(O)cc(O)c1,0.729,-9.1
C(=NNc1nc2ccccc2[nH]1)c1ccccc1,0.626,4.3
C(=NNc1nc(N2CCCC2)nc(N2CCCC2)n1)c1cccnc1,0.684,3.0
Cc1cc(C(=O)NN=Cc2ccc(-c3cccc(Br)c3)o2)n[nH]1,0.68,-287.1
CCOc1ccc(C=NNc2ccc(Cl)nn2)c(O)c1,0.671,0.6
CC(=NNC(=O)c1c(Cl)c(C)nn1C)c1ccc(NC(=O)c2ccncc2)cc1,0.691,-29.1
CC(ON=Cc1ccc(OC(F)F)cc1)C(=O)Nc1cccc(S(=O)(=O)N2CCOCC2)c1 (stereo not given),0.703,4.6
C(=NNc1nc(Nc2ccccc2)nc(N2CCCCC2)n1)c1ccco1,0.699,2.9
O=C(NN=Cc1ccoc1)c1ccccc1F,0.693,0.3
CN1CCN(N=Cc2ccc(Br)cc2)CC1,0.676,-0.5
O=C(NN=Cc1cccc(Oc2ccc([N+](=O)[O-])cc2[N+](=O)[O-])c1)c1cncc(Br)c1,0.634,2.8
COc1cccc(C(=O)NN=C2SCC(=O)N2CCc2ccc(OC)c(OC)c2)c1,0.679,1.3
O=C(NN=Cc1ccc2c(c1)OCO2)c1ccccn1,0.69,9.0
Cc1ccc2cc(C=NNC(=O)CN3CCCCC3)c(Cl)nc2c1,0.7,3.3
CON=C/C(C#N)=C/c1cc(C(=O)c2ccccc2)cn1C,0.699,6.3
CC(CCC1CC(C)OC1=O)=NNC(N)=S (stereo not given),0.704,0.3
Cc1c(Cc2ccccc2)sc(N=Cc2ccc3ccccc3c2)c1C(N)=O,0.682,-106.2
CC1CCc2sc(C(=O)NN=Cc3ccc(O)cc3)cc2C1 (stereo not given),0.7,-6.2
CC(=NNC(=O)c1cc(-c2cccnc2)nc2ccccc12)c1ccccc1O,0.653,2.1
CC(=NNC(=O)c1ccc(Cn2cc(Br)cn2)o1)c1ccc(NC(=O)c2ccoc2C)cc1,0.681,-10.3
O=C(NN=Cc1cc2c(cc1Cl)OCO2)c1cccs1,0.683,-0.4
Cc1ccc(C(=O)Nc2nnc(CC(=O)NN=Cc3ccncc3)s2)cc1,0.725,2.1
CC(=NNC(=O)CCc1ccccc1)c1ccc2c(c1)OCO2,0.669,-0.1

# Not all compounds are listed, so the mix of outcomes need not match the whole.
